Screens: PubChem BioAssay, several laboratories
Mtb hypoxia rep: PubChem AID 1159583; M. tuberculosis hypoxia-regulated fluorescent reporter, fluorescence; fluorescence inhibition, % (test concentration not listed); hit rate 0.1% among 300,000;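 active = 35 to 45% if threefold the growth effect, above 45% if 1.5-fold the growth effect; inactive = the rest, general growth blockers included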;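 note: wells of about 50 µL received 100 nL stock; 0% = vehicle wells and 100% = reference inhibitor wells; whole bacteria with a GFP reporter of the hypoxia response; strong numbers were not always called active; many hits fall short of the cut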
ugtP null kill: growth inhibition of ugtP-null S. aureus, primary screen, RN4220 ugtP deletion, OD600. AID 1259309, 2017. hit rate 0.54% among 330,000. 16 h; some inactives read as strong as hits. growth inhibition, % (concentration not given with the values);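 active = z-score under -3 and OD600 up to 0.15 on both plates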;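 note: plate controls were untreated wells for no effect and antibiotic for full effect; wells of about 80 µL received 100 nL stock; the first replicate is given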
BJeLR lethal: MLPCN primary cell-based screen for lethality selective to Ras in HRASV12 cells; inhibition, % (concentration not given with the values); AID 1554, 2009; BJeLR (HRASV12) viability, CellTiter-Glo ATP luminescence, 48 h; reference of the scale not given here; hit rate 0.17% among 300,000;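 active = replicate mean above 50%; inconclusive = above 50% but judged a plate artefact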;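 note: 50 nL library stock added to about 25 µL; numbers are from one replicate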
Bead autofluor: compound fluorescence in toxin protease inhibitor counterscreen. AID 624483. fluorescence intensity (concentration not given with the values). compound autofluorescence counterscreen, microsphere flow cytometry; active compounds read high. hit rate 3.1% among 360,000;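 active = at least 3 SD above the mean of all compounds, about 16000 in these data; inconclusive = too few beads counted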;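 note: 100 nL of 1 mM stock went into each well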
PrP 5UTR inh: inhibition of PrP 5' UTR reporter expression; cell-based PrP 5' UTR mRNA reporter, plate reader; AID 488862, 2010; inhibition, % (test concentration not listed); hit rate 0.35% among 340,000;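 active = every replicate at 50% or more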;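 note: 0 = median of the neutral control wells; tested in H4 reporter cells; numbers are from one replicate; inactives centre near -14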
RN4220 kill: growth inhibition of S. aureus RN4220, primary screen, OD600 | 16 h | inhibition, % (concentration not given with the values) | hit rate 0.33% among 330,000 | AID 1259311, 2017;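 active = z-score of -3 or lower and OD600 up to 0.18 on both plates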;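 note: plate controls were untreated cells for no effect and reference antibiotic for full effect; stock transfer was 100 nL into about 80 µL; one replicate is shown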
Mtb hypoxia rep growth: recorded beside Mtb hypoxia rep, whose call it bears; growth inhibition, %; measured here: M. tuberculosis growth (absorbance);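 0% = vehicle and 100% = reference antibiotic; read after six days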
Active calls of the source: *; ? = inconclusive; · = no result given; & = joins results of further samples.

SMILES	Mtb hypoxia rep	Mtb hypoxia rep growth	ugtP null kill	BJeLR lethal	Bead autofluor	PrP 5UTR inh	RN4220 kill
O=C(O)c1cccc(N2C(=O)c3ccc(C(=O)c4cccc([N+](=O)[O-])c4)cc3C2=O)c1	-5	-5	-3	3	·	-1	1.0
O=C(COC(=O)c1ccc(F)cc1F)Nc1cccc(S(=O)(=O)N2CCOCC2)c1	5	-3	8	·	6225	-14	3.8
COc1ccc(C2SCC(=O)N2CCCN(C)C)cc1 (stereo unspecified)	14	1	5	-11	2552	-12	7.2
CC(=O)Nc1cccc2c1C(=O)N(c1ccc(OC(C)=O)cc1)C2=O	8	5	9	·	4044	-23	8.5
CC(C)N(CCNC(=O)c1ccc(OCC2CCCO2)cc1)C(C)C (stereo unspecified)	-12	4	6	-1	5169	0	-0.1
CC(CO)N1CCS(=O)(=O)CC1 (stereo unspecified)	·	·	0	6	4983	1	-1.4
CCc1ccc(N2CC(C(=O)NCc3ccc4c(c3)OCO4)CC2=O)cc1 (stereo unspecified)	0	0	3	15	9694	-12	3.8
Cc1c(Cl)cccc1NC(=O)C1NC(=O)CC1c1ccccc1 (stereo unspecified)	·	·	-1	11	4547	-23	2.4
Cc1ccc(CN2CC(C(=O)Nc3ccc(S(=O)(=O)N4CCCCC4)cc3)CC2=O)cc1 (stereo unspecified)	0	-6	-3	5	4559	6	-3.1
Cc1ccccc1N1CCN(C2CCCN(C(=O)CCN3CCCCO3)C2)CC1 (stereo unspecified)	10	6	1	8	6424	-21	-1.4
CCOC(=O)CC(=O)CSc1ncnc2c1nnn2-c1ccc(OC)cc1	-3	12	-4	0	5090	-61	2.7
OC1(C#CCN2CCCC2)CCCCC1	1	-8	4	-1	3656	-16	2.0
COc1cc2nc(CN(C)Cc3ccc(Cl)cc3)[nH]c(=O)c2cc1OC	4	6	4	0	4211	-16	5.8
O/N=C/c1ccccc1OCc1ccccc1Cl	·	·	·	2	3137	-2	·
Cc1cc(C)cc(C(=O)NC(CC(N)=O)c2ccc(N3CCC(Br)CC3)c([N+](=O)[O-])c2)c1 (stereo unspecified)	11	-2	-3	-7	3820	-2	-1.9
Cc1ccc(NC(=O)C(C)N2CCN(C)CC2)cc1S(=O)(=O)N1CCOCC1 (stereo unspecified)	13	1	3	·	3583	-53	1.6
CCOc1cccc(OCCOCCN(C)C)c1	-8	-3	1	-3	2072	-33	3.1
CS(=O)(=O)N(CC(=O)Nc1cccnc1)c1ccc2c(c1)OCO2	8	9	4	-2	11194	-42	2.7
CCOC(=O)C1=C(c2ccccc2)Nc2ncnn2C1c1cccc(OC)c1OC (stereo unspecified)	·	·	0	-6	4204	-6	1.9
COc1ccc(N2CCN(C3CCCN(C(=O)CN4CCCCC4=O)C3)CC2)cc1 (stereo unspecified)	0	-4	15	0	4478	-4	7.5
CCCN1CCN(C(=O)CN2C(=O)CC(C)(C)S(=O)(=O)c3ccccc32)CC1	22	6	0	5	12757	-20	4.3
CNCCc1c[nH]c2ccccc12	1	10	-3	-3	4306	·	2.1
COc1cc2c(cc1OC)-c1cc(NC3CCCCCCC3)nc(=O)n1CC2	0	12	-31	3	?	31	4.4
O=C(Cc1n[nH]c(=O)c2ccccc12)N1CCN(c2ccc(F)cc2)CC1	5	3	3	-5	4850	-8	7.0
Cc1cc(C(=O)OCC(=O)c2c(N)n(C)c(=O)n(C)c2=O)c(C)o1	17	17	-5	-1	2956	-7	-11
CCOC(=O)c1cn2cccnc2n1	·	·	1	18	2506	-1	4.3
COc1cccc(NC(=O)CCNS(=O)(=O)c2cccc3nsnc23)c1	-11	0	3	0	3360	-21	3.7
CCCn1nc(C(=O)OCC(=O)Nc2cccc(S(N)(=O)=O)c2)c2ccccc2c1=O	7	4	3	-1	3952	-19	8.0
CCN(CC)S(=O)(=O)c1ccc(-c2nnc(SCC(=O)Nc3nc(C)cs3)o2)cc1	15	8	-15	-2	9028	-9	11
O=C(c1c[nH]c(C(=O)C(Cl)(Cl)Cl)c1)c1ccccc1F	5	2	9	3	2920	-18	2.9
Cc1c(C)c2c(OCC(=O)NC3CC3)cc3c(c2oc1=O)CCC(C)(C)O3	·	·	-4	6	5556	-20	7.0
CCOC(=O)C1=C(C)OC(N)=C(C#N)C1c1cc2ccccc2nc1N1CCCCC1 (stereo unspecified)	·	·	-4	3	·	·	4.2
Clc1ccc2c(NN=Cc3cccnc3)ccnc2c1	-5	-15	9	·	·	·	2.6
CCNC(=O)N(CC)C[C@H]1N[C@@](Cc2ccccc2)(C(=O)OC)[C@H]2C(=O)N(Cc3ccccc3)C(=O)[C@@H]12	-1	3	0	·	3718	5	1.6
Cc1ccc(C(C)C)c(OCC(=O)NNC(=O)Cc2ccc(S(=O)(=O)N3CCOCC3)s2)c1	14	8	13	·	3848	2	7.5
CCC(C)NC(=O)C(CCSC)NC(=O)c1ccccc1 (stereo unspecified)	5	-4	-1	1	2886	-29	2.7
C#CCOCCOCCOCCNc1nc(N2CCN(C(=O)C(CCCCN)n3cc(CCCC)nn3)CC2)nc(N2CCN(C(=O)C(C(C)CC)n3cc(CCCN=C(N)N)nn3)CC2)n1 (stereo unspecified)	9	21	11	·	·	·	9.1
CCN(CC)CCNC(=O)CCn1nc(-c2ccc(Cl)cc2)ccc1=O	1	-1	8	-1	3699	-3	1.1
CCc1nc(SCC(=O)Nc2ccc(C(=O)O)cc2)n[nH]1	9	6	10	-1	5861	-9	2.0
COc1ccccc1OCC(=O)O	-8&4	-2&1	-4&-4	9&0	3355&10552	-12&-12	1.4&-7.7
O=C(Nc1ccc2c(c1)OCO2)c1cn(Cc2ccc(F)cc2)nn1	·	·	-3	-9	3670	-44	-0.1
CN(CCCNC(=O)c1ccc(C=NO)nc1)CCCN(C)Cc1ccccc1	9	7	9	·	·	·	4.8
O=C(O)c1cccc(-n2cccc2/C=C2/NC(=O)N(c3ccc(Cl)cc3)C2=O)c1	-3	2	19	·	4317	-40	41
c1ccc(-c2nc3cnccn3c2Nc2ccc3c(c2)OCCO3)cc1	0	6	-6	-4	3872	-11	-2.2
O=C1C2CC=C(Cl)CC2C(=O)N1CCN1CCOCC1 (stereo unspecified)	·	·	-3	6	2514	-6	3.7
COc1ccc(CNC(=O)C[C@H]2C[C@H](C(=O)N3CCOCC3)[C@@]3(CCC4CCCC4)c4[nH]c5ccc(Cl)cc5c4CCN3C2=O)cc1OC	0	2	-26	·	4220	-4	-4.6
O=C1NC(=O)C(c2ccccc2)(C2CCCC2)N1 (stereo unspecified)	11	6	3	·	3233	3	0.2
COc1cc(C2c3cc4c(cc3C(O)C3COC(=O)C23)OCO4)cc(OC)c1O[Si](C)(C)C(C)(C)C (stereo unspecified)	9	11	11	·	·	·	-1.2
Cc1cc(=O)[nH]c(SCCCOc2ccc(F)cc2)n1	8	0	5	5	23808*	-14	5.2
CC(Cc1ccccc1)=NNC(=O)CNC(=O)c1ccc2c(c1)OCCO2	19	11	4	·	·	·	2.5
Following part
SMILES	Mtb hypoxia rep	Mtb hypoxia rep growth	ugtP null kill	BJeLR lethal	Bead autofluor	PrP 5UTR inh	RN4220 kill
NC(=O)Cn1c(=O)n(Cc2ccccc2)c(=O)c2cccnc21	12	-1	7	-2	3358	-1	3.3
O=C(COC(=O)c1cc(=O)[nH]c2ccccc12)Nc1nccs1	6	3	3	-3	4612	-12	5.8
CC1CCN(CCCn2c(=S)[nH]c3c(sc4ccccc43)c2=O)CC1	-1	10	2	-16	3887	-31	5.5
CS(=O)(=O)c1ccc2nc(NC(=O)C3CCCO3)sc2c1 (stereo unspecified)	-3	-2	4	-13	4467	-29	1.3
O=C(Nc1cccc(Cl)c1)O/N=C\c1ccncc1	·	·	·	5	11283	-19	·
CCCc1c(C)c2c(C)[nH]nc2oc1=O	-1	11	7	-4	·	-23	15
Cc1ccc(C)c(N2CCN(C(=O)C3CCCN(S(=O)(=O)c4c(C)noc4C)C3)CC2)c1 (stereo unspecified)	-2	0	-8	·	5827	-1	-12
Cc1noc(C)c1COc1ccccc1C(=O)N(C)CC(=O)Nc1cccc(F)c1	0	-4	1	6	6203	-21	1.7
COc1ccc(S(=O)(=O)N2CCN(c3ncnc4c(-c5ccccc5)nsc34)CC2)cc1	8	6	5	·	3672	-14	4.0
NC(=O)c1ccc(NC(=O)COC(=O)CCSc2ccccc2)cc1	15	12	9	-2	?	-12	4.2
Cc1ccc(C(C)C)c(OCc2n[nH]c(=S)o2)c1	19	6	0	4	2096	-10	22
c1ccc(-n2nnc3ccccc32)nc1	17	1	1	0	2853	-22	9.1
CN1CCN(Cc2nc3c(c(=O)n(C)c(=O)n3C)n2CCCc2ccccc2)CC1	9	11	-7	-1	4131	-23	4.8
NS(=O)(=O)c1ccc(N=Cc2c(O)n(-c3ccccc3)c(=O)[nH]c2=O)cc1	6	0	2	-2	4075	-11	-0.7
COc1ccc(OC)c(N=Cc2c(O)[nH]c3ccccc23)c1	·	·	-15	6	2492	28	5.5
CCOC(=O)c1cccc(NC(=O)c2cccs2)c1	·	·	-1	-1	2673	-31	1.2
Cc1cc(C)cc(NS(=O)(=O)c2ccc3oc(=O)ccc3c2)c1	3	9	1	6	23250*	-1	5.7
CCN(CC)C(=O)CC1(c2ccccc2OC)CCOC(C(C)C)C1 (stereo unspecified)	3	13	-7	12	5513	-5	6.4
NS(=O)(=O)c1ccc(CNC(=O)c2cc(-c3ccccc3)nc3ccccc23)cc1	11	6	10	2	4481	-5	3.4
COc1ccc(NC(=O)C(NC(=O)c2ccc(=O)[nH]c2)c2ccc(OC)cc2)cc1 (stereo unspecified)	5	0	2	-2	2526	-9	1.5

Structures from the list above containing two or more sulfur atoms:
SMILES	Mtb hypoxia rep	Mtb hypoxia rep growth	ugtP null kill	BJeLR lethal	Bead autofluor	PrP 5UTR inh	RN4220 kill
COc1cccc(NC(=O)CCNS(=O)(=O)c2cccc3nsnc23)c1	-11	0	3	0	3360	-21	3.7
CCN(CC)S(=O)(=O)c1ccc(-c2nnc(SCC(=O)Nc3nc(C)cs3)o2)cc1	15	8	-15	-2	9028	-9	11
Cc1ccc(C(C)C)c(OCC(=O)NNC(=O)Cc2ccc(S(=O)(=O)N3CCOCC3)s2)c1	14	8	13	·	3848	2	7.5
CC1CCN(CCCn2c(=S)[nH]c3c(sc4ccccc43)c2=O)CC1	-1	10	2	-16	3887	-31	5.5
CS(=O)(=O)c1ccc2nc(NC(=O)C3CCCO3)sc2c1 (stereo unspecified)	-3	-2	4	-13	4467	-29	1.3
COc1ccc(S(=O)(=O)N2CCN(c3ncnc4c(-c5ccccc5)nsc34)CC2)cc1	8	6	5	·	3672	-14	4.0

Later entries.
SMILES	Mtb hypoxia rep	Mtb hypoxia rep growth	ugtP null kill	BJeLR lethal	Bead autofluor	PrP 5UTR inh	RN4220 kill
COc1ccc(NC(=O)CSc2nc3scc(C)c3c(=O)[nH]2)cc1	7	13	-9	-2	5459	-9	4.2
O=C(COC(=O)c1ccc2c(c1)OCCO2)Nc1cccc(S(=O)(=O)N2CCOCC2)c1	18	6	14	4	4364	-14	7.9
COc1ccccc1N1CCN(CC(O)COCc2cccs2)CC1 (stereo unspecified)	6	6	-1	0	2657	-16	2.0
CCOc1cc(/C=C2/C(=N)N3N=C(CC)SC3=NC2=O)ccc1OC(=O)c1ccco1	-2	4	2	-4	5814	22	-0.1
CCOC(=O)C1CCc2nc3ccccc3c(=O)n21 (stereo unspecified)	3	4	-1	-1	3150	-23	4.5
Cc1sc(=NC(=O)c2ccco2)n(C)c1-c1ccccc1	·	·	0	22	9033	-94	6.1
Cc1onc(-c2ccccc2Cl)c1C(=O)OCC(=O)Nc1ccc2c(c1)OCO2	9	8	-3	3	3386	-18	-1.0
COc1ccc(CN2C(=O)N(c3ccccc3)C(=O)C2CC(=O)Nc2ccccc2)cc1OC (stereo unspecified)	1	2	-6	-6	2762	-18	3.9
COc1cccc(Sc2nc(-c3ccccc3)ncc2S(C)(=O)=O)c1	12	9	4	-2	3662	-15	3.3
COc1ccc(CCNC(=O)CSc2nc(-c3ccco3)cc(C(F)(F)F)n2)cc1	13	-1	-4	-7	13033	-9	8.1
COC(=O)c1nnn(Cc2ccccc2)c1N	7	5	-6	3	2374	-24	2.9
Cc1ccc(-c2nn3c(C)nnc3s2)cc1NC(=O)c1ccc(OC(C)C)cc1	·	·	-1	0	4252	-92	-1.2
